Compound activity as filed in PubChem BioAssay.
Sfp inh: qHTS Assay for Inhibitors of Bacillus subtilis Sfp phosphopantetheinyl transferase (PPTase). 4'-phosphopantetheinyl transferase ffp (Bacillus subtilis), Q9F4F7. Biochemical Sfp PPTase activity, qHTS. Potency, µM, for the others: max response, negative = inhibition, most hits filed as inhibitors. hit rate 3.5% among 310,000; active = well fitted inhibition curve with a large enough effect; inconclusive = small, poorly fitted or top-dose-only effect, or another doubt; inactive = no such curve, though single readings can be large or run the other way;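 also: the enzyme is Sfp with the accession as filed and its product quenches rhodamine fluorescence; potency is read from the fitted curve at half-maximal effect; 0% = enzyme reaction without inhibitor and -100% = no enzyme wells; top concentration of the series not given in the record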
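Step 1, compound plus 15 nM Sfp-PPTase, 15 min, room temperature. Step 2, add rhodamine-CoA (5 uM) and BHQ-2-YbbR (12.5 uM). Step 3, read 525/598 nm fluorescence at 0 and 30 min.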
TRPV1 potentiator: HTS Assay for Compounds that Act as Potentiators of the Vanilloid Receptor 1; Transient receptor potential cation channel subfamily V member 1 (Homo sapiens), Q8NER1; TRPV1-expressing cells, Fluo-8 calcium influx, capsaicin EC20 potentiation; host cell line not named in the record; control for the full effect not named in the record; potentiation, % at 8.33 µM; hit rate 0.02% among 320,000; AID 540277, 2011; active means potentiation above 80%; inconclusive means 30% to 80%; inactive means below 30%; also: 0% is about no effect
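Fluo-8 calcium influx in TRPV1-expressing cells, kinetic read (ex 480/em 520 nm). Compound added and read 3 min for agonist activity, followed by capsaicin at EC20 final and 2 min further read for enhancement.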
D2 PAM: Beta-Arrestin HTS for Positive Allosteric Modulators of the Human D2 Dopamine Receptor: Potentiators | D(2) dopamine receptor (Homo sapiens), P14416 | DiscoveRx D2 beta-arrestin cells, luminescence, 90 min; 100% = 57 uM dopamine signal | potentiation, % (no concentration beside the values) | hit rate 0.23% among 360,000; active = potentiation of 50% or more; inconclusive = 30% to 50%; inactive = 30% or less;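 also: compound concentration not given in the record; tested on top of an EC20 dose of dopamine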
Target sequence (P14416 whole entry, looked up): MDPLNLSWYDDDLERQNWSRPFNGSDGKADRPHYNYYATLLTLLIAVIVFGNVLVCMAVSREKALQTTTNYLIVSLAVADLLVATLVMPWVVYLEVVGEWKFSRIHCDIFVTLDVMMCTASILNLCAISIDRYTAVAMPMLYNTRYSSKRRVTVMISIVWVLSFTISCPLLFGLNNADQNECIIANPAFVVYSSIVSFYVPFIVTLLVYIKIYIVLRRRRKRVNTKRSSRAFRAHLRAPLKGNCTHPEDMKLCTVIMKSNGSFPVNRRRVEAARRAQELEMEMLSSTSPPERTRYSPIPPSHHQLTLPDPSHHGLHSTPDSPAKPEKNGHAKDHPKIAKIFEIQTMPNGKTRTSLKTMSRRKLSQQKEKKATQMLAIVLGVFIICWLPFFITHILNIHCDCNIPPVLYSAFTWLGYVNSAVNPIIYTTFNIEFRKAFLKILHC
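D2 cells co-treated with compound plus 50 nM dopamine (EC20) for 90 min at 37 deg C to detect potentiation. Beta-arrestin recruitment was read as enzyme-fragment luminescence after 1 h at ambient temperature. Full response was set by 57 uM dopamine.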
CtBP-E1A inh: qHTS Assay for Inhibitors of the CtBP/E1A Interaction; CtBP / adenovirus E1A interaction (AlphaScreen); AlphaScreen GST-E1A/His-CtBP binding, 1536-well; active compounds read low; control for the full effect not named in the record; activity change, % (no concentration beside the values); hit rate 0.49% among 340,000; AID 651724, 2012; in the data active means activity change below about -65%; inconclusive means about -30% to -65%; inactive means above about -30%; also: % is scaled to controls: 0 for no effect and ±100 for the full control effect
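AlphaScreen with 125 nM GST-E1A and 125 nM His-CtBP (5X stocks) in Tris pH 8.0, 300 mM NaCl, BSA, Tween 20, TCEP. Compounds preincubated 2 h at 37 deg C, then glutathione donor/nickel acceptor beads added for 1 h at 37 deg C in dark.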
Six1-Eya2 blk: qHTS Assay for Inhibitors of the Six1/Eya2 Interaction; Homeobox protein SIX1 (Homo sapiens) + Protein phosphatase EYA2 (Homo sapiens), …; hit rate 0.56% among 360,000; AlphaScreen GST-Six1/His-Eya2 binding, biochemical; active compounds read low; control for the full effect not named in the record; activity change, % (concentration not given with the values); in the data active = activity change below about -65%; inconclusive = about -30% to -65%; inactive = above about -30%; also: % is scaled to controls: 0 for no effect and ±100 for the full control effect
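AlphaScreen with GST-Six1 and His-Eya2 (5X mix: 250 nM and 500 nM), glutathione donor and nickel acceptor beads; buffer 50 mM Tris pH 8.0, 300 mM NaCl, 1 mM TCEP; 1 h at 37 C in the dark.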
D2 ag: Beta-Arrestin HTS for Positive Allosteric Modulators of the Human D2 Dopamine Receptor: Agonists; D(2) dopamine receptor (Homo sapiens), P14416; hit rate 0.084% among 360,000; AID 624465, 2012; activation, % (no concentration beside the values); DiscoveRx PathHunter D2 beta-arrestin, luminescence, 90 min; 100% = 57 uM dopamine signal; in the data active = activation above about 40%; inconclusive = about 15% to 40%; inactive = below about 15%; also: compound concentration not given in the record; the text of the record calls up to 30% inactive
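Agonist mode: compounds alone added to overnight-plated D2 PathHunter cells for 90 min at 37 C, with 57 uM final dopamine (EC100) defining full response. Beta-arrestin recruitment detected by chemiluminescent reagent, read after 1 h at ambient temperature.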
PINK1 modulator: A Quantitative High throughput Screen to Identify Chemical Modulators of PINK1 Expression; hit rate 0.2% among 410,000; PINK1 immunofluorescence, high-content cytometry, 24 h; Potency, µM (doses to about 76.6 µM), for inactives: at the top dose activation (PINK1 increase), usual class: activators; AID 624263, 2012; active = well fitted activation curve with a large enough effect; inconclusive = small, poorly fitted or top-dose-only effect; inactive = flat fitted curve, though single readings scatter; cell line not stated here;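 also: potency is read from the fitted curve at half-maximal effect; % of control where 0% means no effect; nearly all actives have a fitted effect of over 65% in size; a mitochondrial uncoupler was the plate control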
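Stable cell line treated 24 h with compounds at 5 concentrations (CCCP controls), then fixed and immunostained for PINK1 plus nuclear and cell stains; PINK1 immunofluorescence quantified by laser-scanning microplate cytometry.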
Starred values were filed as active, the others as inactive; ? = inconclusive; . = not tested or not shown; & = joins results of further samples; [ ] = another dose, or the depositor's remark.

SMILES	Sfp inh	TRPV1 potentiator	D2 PAM	CtBP-E1A inh	Six1-Eya2 blk	D2 ag	PINK1 modulator
CCOC(=O)c1sc(-c2ccccn2)nc1C	-9%	8	6	9	5	-0.5	1.9%
O=C(C1=C[C@H](c2ccc(C(F)(F)F)cc2)C[C@H](OCc2ccc(CO)cc2)O1)N1CCOCC1	-2%	19	-10	3	-1	-2.5	-0.5%
O=C(OCC(=O)N1CCOCC1)c1ccccc1SCC(=O)N1CCCC1	-10%	26	-7	1	8	5.3	-2.4%
Cc1ccc(C(C)C)c(OCc2ccc(C(=O)N/N=C/c3ccc(O)cc3O)cc2)c1	10%	-7	10	2	-6	2.4	3.7%
COC(=O)c1cc(NS(=O)(=O)c2ccc(NC(C)=O)cc2)ccc1Cl	-1%	19	0	32	5	0.0	2.2%
O=c1c(Cc2ccc(F)cc2)c(O)ccn1Cc1ccco1	10%	-2	1	3	0	0.8	1.2%
CC(=O)c1c(N2CCCCC2)nc(=O)n(-c2ccccc2)c1C	6%	15	-7	?	-3	-0.2	-2.2%
O=C(Cn1cnc2ccccc2c1=O)N1CCN(c2ccccc2)CC1	20%	?	5	11	0	-1.0	-0.6%
CN1CCN(CCCNC(=O)c2ccc3c(Cl)c4c(nc3c2)CCCC4)CC1	4%	0	-13	.	-5	-6.0	-0.5%
CCOCCCNC(=O)c1ccccc1SCC	-2%	6	-1	1	-1	-0.6	-1.4%
COc1ccc(CNc2ncnc3cc(OC)c(OC)cc23)cc1OC	3%	1	-4	-11	-8	-0.4	4.2%
COC(=O)c1ccc(NC(=O)Nc2ccc(F)cc2F)cc1	-4%	1	-6	8	1	0.4	2.6%
COc1ccc2c(c1)-c1nc(NC(=O)c3ccco3)sc1CC2	-11%	0	1	-7	-10	3.0	3.2%
CCCNC(=O)c1cc(C2CCCN(C(=O)C3CC3)C2)on1 (stereo not given)	.	.	-9	7	6	-2.4	0.0%
Cn1c(CN(O)S(=O)(=O)c2ccc(Cl)cc2)nnc1C(F)(F)F	19%	-2	1	8	4	-3.8	2.0%

9 of the compounds above, with bars between the fields:
SMILES | Sfp inh | TRPV1 potentiator | D2 PAM | CtBP-E1A inh | Six1-Eya2 blk | D2 ag | PINK1 modulator
CCOC(=O)c1sc(-c2ccccn2)nc1C | -9% | 8 | 6 | 9 | 5 | -0.5 | 1.9%
O=C(C1=C[C@H](c2ccc(C(F)(F)F)cc2)C[C@H](OCc2ccc(CO)cc2)O1)N1CCOCC1 | -2% | 19 | -10 | 3 | -1 | -2.5 | -0.5%
O=C(OCC(=O)N1CCOCC1)c1ccccc1SCC(=O)N1CCCC1 | -10% | 26 | -7 | 1 | 8 | 5.3 | -2.4%
Cc1ccc(C(C)C)c(OCc2ccc(C(=O)N/N=C/c3ccc(O)cc3O)cc2)c1 | 10% | -7 | 10 | 2 | -6 | 2.4 | 3.7%
COC(=O)c1cc(NS(=O)(=O)c2ccc(NC(C)=O)cc2)ccc1Cl | -1% | 19 | 0 | 32 | 5 | 0.0 | 2.2%
O=c1c(Cc2ccc(F)cc2)c(O)ccn1Cc1ccco1 | 10% | -2 | 1 | 3 | 0 | 0.8 | 1.2%
CC(=O)c1c(N2CCCCC2)nc(=O)n(-c2ccccc2)c1C | 6% | 15 | -7 | ? | -3 | -0.2 | -2.2%
O=C(Cn1cnc2ccccc2c1=O)N1CCN(c2ccccc2)CC1 | 20% | ? | 5 | 11 | 0 | -1.0 | -0.6%
CN1CCN(CCCNC(=O)c2ccc3c(Cl)c4c(nc3c2)CCCC4)CC1 | 4% | 0 | -13 | . | -5 | -6.0 | -0.5%

Further results follow.
SMILES	Sfp inh	TRPV1 potentiator	D2 PAM	CtBP-E1A inh	Six1-Eya2 blk	D2 ag	PINK1 modulator
O=C(C(c1ccccc1)N1CCOCC1)N1CCOCC1 (stereo not given)	-14%	0	2	7	36	-2.0	0.7%
C/C(=N/NC(=O)c1cc(O)c(O)c(O)c1)c1ccc([N+](=O)[O-])cc1	3.2µM*	-4	3	.	-6	7.8	-0.9%
CSCCC(NC(=O)COc1cccc2ccccc12)C(=O)O (stereo not given)	0%	24	-10	.	-4	-4.5	-1.0%
COc1c(Br)cc(/C=N/n2c(-c3ccccc3)n[nH]c2=S)c(O)c1Br	50µM*	-5	-9	.	13	-14	-0.5%
CC(C)C(=O)N[C@H]1CCC2C3CC=C4C[C@@H](O)CC[C@]4(C)C3CC[C@@]21C (stereo not given in full)	.	.	-2	1	2	1.2	-0.5%
CCCCn1nnnc1C(c1ccccc1)N1CCN(c2ccc(C(F)(F)F)cc2[N+](=O)[O-])CC1 (stereo not given)	.	.	.	-24	-23	.	0.6%
CCOc1ccccc1OCC(=O)Nc1nnc(COC)s1	-9%	13	-3	2	8	-2.7	56%[38.3 µM]
COc1ccccc1/C=C/C(=O)OCC(=O)c1c[nH]c2ccccc12	.	3	-15	28	-2	5.0	0.8%
COc1cccc(CNC(=O)CCCc2cn(C)c3ccccc23)c1	11%	-5	8	0	-7	-1.8	0.4%
COc1ccccc1N1CCN(C(=O)C2CCN(C(=O)c3ccc(C(C)(C)C)cc3)CC2)CC1	3%	-4	13	-3	-3	4.5	-1.0%
CCOC(=O)c1c(NC(=O)CCc2ccc(CC)o2)sc(C)c1C	?	17	-16	9	12	-1.6	-0.5%
CN(CC(=O)NCC1CCCCC1)S(=O)(=O)c1ccc(F)cc1	20%	-7	-4	0	2	-1.6	0.8%
NC(=O)NC(=O)COC(=O)c1cccc(S(=O)(=O)N2CCCCCC2)c1	5%	-4	-14	.	8	-3.4	4.1%
CC(C)(C)C(=O)Nc1ccccc1C(=O)Nc1cc(Cl)ccc1Cl	4%	-1	5	10	7	-0.5	8.0%
Cc1cc(=O)n2nc(N3CCC(C(=O)NCc4cccnc4)CC3)sc2n1	14%	1	6	-13	-5	5.5	-0.8%
Nc1nc2ccccc2n1C(=O)c1ccco1	-23%	-13	5	3	-1	?	?
CCN(CC)CCNC(=S)N1CCn2c(nc3ccccc32)C1	11%	12	-8	10	19	-11	1.9%
O=C1CSC(c2ccc(F)cc2)N1c1ccccc1F (stereo not given)	12%	-12	-7	0	-4	-6.4	6.7%
Cc1nc2cc(-c3ccccc3)nn2c(N)c1-c1ccccc1	.	-11	-3	.	0	-3.4	4.5%
CCC(C)n1c(SCC(=O)NCCc2ccc(S(N)(=O)=O)cc2)nc2ccsc2c1=O (stereo not given)	-1%	-4	-16	15	-3	0.3	1.8%
Cc1nn(C(=O)Cn2cc([N+](=O)[O-])cn2)c(C)c1Cl	21%	14	2	-2	-7	-4.5	6.3%
COc1ccccc1N1CCN(CCCCN2C(=O)C3CCCCN3C2=O)CC1 (stereo not given)	-8%	2	-28	3	-5	1.4	0.1%
O=C(CCCOc1ccccc1)N1CCN(S(=O)(=O)c2ccccc2)CC1	.	-13	-5	4	1	-5.5	-0.6%
Cc1cccc(N(C)C(=O)C2CCCN2S(=O)(=O)c2cccc3nsnc23)c1 (stereo not given)	14%	0	-12	0	-6	-0.8	-1.1%
O=C(CN1C(=O)/C(=C/c2ccc(F)cc2)SC1=S)NC1C=CS(=O)(=O)C1 (stereo not given)	-10%	9	-5	.	2	3.2	0.4%
OCCNc1ncnc2c1c(-c1ccccc1)c(-c1ccccc1)n2Cc1ccco1	-27%	-2	1	-14	-10	-0.7	-2.9%
CSc1nsc(SCC(=O)Nc2nc3ccc(C)cc3s2)n1	-9%	-3	-12	.	4	-1.7	8.4%
CSc1nnc(-c2cccs2)n1C	7%	-6	-12	3	9	-0.5	-0.6%
CCOc1ccc(N/C(=N/c2nc(C)cc(C)n2)NC(=O)CC)cc1	-1%	-6	-7	.	1	-4.4	1.3%
O=S(=O)(c1ccccc1)N1CCN(C(=S)Nc2ccccc2Cl)CC1	-10%	-13	8	6	9	-0.5	1.5%
CCCCN(C)CCNC(=O)c1nn(-c2ccc(OC)cc2)c(=O)c2c1c1ccccc1n2C	20%	-9	-20	.	4	-10	5.7%&1.6%
CCOC(=O)c1cc2c(c(-c3cccc(-c4cc5ccccc5o4)c3)n1)[C@@H](CCO)N(S(=O)C(C)(C)C)C2 (stereo not given in full)	.	.	-6	3	0	-2.1	0.3%
Cc1cccnc1Nc1ncnc(N)c1[N+](=O)[O-]	3%	16	0	-2	1	-2.8	0.3%
N#CCCN(C(=O)COC(=O)CCc1c[nH]c2ccccc12)c1ccccc1	.	2	12	?	-6	3.4	5.1%
O=C1NC(=O)/C(=C/c2cccc3ccccc23)S1	10%	2	-4	-16	-6	1.3	-0.7%
COc1ccc(CCN2C(=O)CSC2=S)cc1OC	-2%	25	1	-4	-7	-2.6	-1.2%
Cc1cnc(NC(=O)Nc2ccc(Cl)cc2)s1	10%	-8	0	-15	-11	-2.6	8.1%
COc1cc(/C=N/NC(=O)C(=O)/C=C2\NC(C)(C)Cc3ccccc32)ccc1O	-8%	-20	18	-25	-20	0.2	8.2%
CC1=C(C)C(C)=C(C#N)C(=C(C#N)C#N)N1	-18%	4	0	6	-4	-2.1	-0.1%
O=C(NN=C1CCCCC1)c1ccccc1-n1cccc1	14%	-3	-4	4	3	-1.7	0.2%
Cc1cccc(N2CCN(C(=O)c3ccc4c(c3)OCCO4)CC2)c1C	9%	-14	-5	-5	13	0.0	1.8%
CCCCCCOc1ccc(NC(=O)CC2C(=O)N(CC)C(=S)N2Cc2ccco2)cc1 (stereo not given)	11%	-6	-21	3	-11	-2.6	8.3%
CCCCNC(=O)CSc1nc2ccccc2c(=O)n1C1CCCC1	1%	7	8	1	-1	-1.8	0.6%
COc1ccc(C)cc1N(CC(=O)NCCSCc1ccco1)S(=O)(=O)c1ccc(C)cc1	-26%	-6	-8	-12	-15	-5.4	3.9%
Cc1onc(C(=O)NCCc2ccccc2)c1[N+](=O)[O-]	-5%	-9	-4	12	2	-2.2	3.2%
